Marburg entry inh: inhibitors of Marburg virus binding or cell entry | Potency, µM (top dose mostly 37.8 µM), without a hit: top-dose activity change, negative = inhibition, usual class: inhibitors | Marburg virus pseudotyped entry inhibition, cell reporter; control for the full effect not named in the record; about a third of the inactives were read at about 46 µM | 300,000 compounds, 1.8% hits; active = well fitted inhibition curve with a large enough effect; inconclusive = small, poorly fitted or top-dose-only effect, or effect the other way; inactive = flat fitted curve, though single readings scatter; tested in HEK293 cells; about a fifth of its hits are not listed in these tables; note: % is set by controls: 0 for no effect and ±100 for the full control effect; luciferase read-out
LASV entry inh: blocks Lassa virus binding to or entry into cells. Lassa virus pseudotype entry inhibition, cell reporter; control for the full effect not named in the record. Potency, µM (top dose mostly 37.9 µM), for inactives: top-dose activity change, negative = inhibition, actives largely listed as inhibitors. 300,000 compounds, 1.2% hits. AID 540256; active means well fitted inhibition curve with a large enough effect; inconclusive means small, poorly fitted or top-dose-only effect, or effect the other way; inactive means flat fitted curve, though single readings scatter; tested in HEK293 cells; note: % is set by controls: 0 for no effect and ±100 for the full control effect; nearly all actives have a fitted effect of over 50% in size; luciferase read-out
SARS PLpro yeast: inhibitors of SARS-CoV papain-like protease in yeast; Potency, µM (top dose mostly 32.9 µM), for the others: top-dose activity, positive = growth rescue; 330,000 compounds, 0.19% hits; S. cerevisiae expressing SARS-CoV PLpro, growth rescue; control for the full effect not named in the record; note: 0% is about no effect; nearly all actives have a fitted effect of over 55% in size; growth read by luminescence after 48 h
NS1 function inh: influenza NS1 inhibition; S. cerevisiae slowed by influenza A NS1, growth recovery by OD600; Potency, µM (series often up to 46.1 µM), without a hit: at the highest dose activity, positive = more growth; 270,000 compounds, 0.4% hits; AID 2326; note: actives are rising curves; nearly all actives have a fitted effect of over 50% in size
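Compounds were scored for reversing the slow growth caused by influenza A NS1 in S. cerevisiae, measured by optical density at 600 nm. Assay medium contained 2% galactose at pH 6.0; NS1-free yeast of the same strain were the positive control.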
RE007 growth inh: less growth of the S. pombe RE007 Vpr strain; S. pombe RE007 Vpr strain, BacTiter-Glo ATP luminescence, 24 h; control for the full effect not named in the record; Potency, µM (highest dose often 92.2 µM), without a hit: top-dose activity change, negative = less growth; 360,000 compounds, 0.21% hits; active = well fitted falling curve with a large enough effect; inconclusive = small, poorly fitted or top-dose-only effect; inactive = no such curve, though single readings can be large or run the other way;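 note: % is set by controls: 0 for no effect and ±100 for the full control effect; nearly all actives have a fitted effect of over 50% in size; the assay follows cell death caused by Vpr and the record does not say whether a fall means rescue or toxicity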
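Fission yeast RE007 carrying one integrated HIV-1 vpr copy, seeded at OD 0.01 in PMG+AL medium with 23 nL pinned compound. Grown 24 h at 30 degrees; viability read by BacTiter-Glo luminescence after 5 min.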
Cruzain noTriton: inhibitors of Trypanosoma cruzi cruzain without detergent; AID 1476; purified cruzain, Z-FR-AMC fluorescence, no detergent; P25779; Potency, µM, inactives show max response, negative = inhibition, actives largely listed as inhibitors; 200,000 compounds, 2.3% hits; active = well fitted curve in the direction sought with a large enough effect; inconclusive = small, poorly fitted or top-dose-only effect, or another doubt; inactive = no such curve, though single readings can be large; an effect the other way counts as inactive or inconclusive;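 note: plate controls were enzyme without inhibitor for no effect and buffer without enzyme for full effect; nearly all actives have a fitted effect of over 40% in size; top concentration of the series not given in the record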
Target sequence (P25779 123-467 limits assumed): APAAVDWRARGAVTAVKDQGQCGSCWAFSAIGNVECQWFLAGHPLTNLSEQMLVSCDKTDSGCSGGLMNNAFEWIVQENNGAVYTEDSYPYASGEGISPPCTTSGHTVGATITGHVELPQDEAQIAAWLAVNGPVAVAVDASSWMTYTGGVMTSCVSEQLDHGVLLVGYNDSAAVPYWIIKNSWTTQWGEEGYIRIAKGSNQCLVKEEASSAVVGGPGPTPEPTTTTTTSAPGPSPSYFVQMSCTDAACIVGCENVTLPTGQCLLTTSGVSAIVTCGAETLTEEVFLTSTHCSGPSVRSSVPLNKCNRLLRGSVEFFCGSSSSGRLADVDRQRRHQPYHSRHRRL
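Purified cruzain at 1.5 nM, pre-incubated 15 min with compound at room temperature in 100 mM sodium acetate pH 5.5, 5 mM DTT, 0.00005% Triton X-100. Reaction started with 2 uM Z-FR-AMC; AMC fluorescence increase over 60 s gives rate.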
2A StopGo: lowers the luciferase signal of an FMDV 2A StopGo reporter. 410,000 compounds, 1.2% hits. human cells with a luciferase reporter of 2A StopGo recoding; control for the full effect not named in the record. Potency, µM (titrated, usually from 57.9 µM), for the others: top-dose signal change, negative = less light; active = well fitted falling curve with a large enough effect; inconclusive = small, poorly fitted or top-dose-only effect; inactive = no such curve, though single readings can be large or run the other way; tested in HEK293T cells; note: % is set by controls: 0 for no effect and ±100 for the full control effect; nearly all actives have a fitted effect of over 45% in size; luciferase light after 4 h
Cruzain inh Det: cruzain (T. cruzi) inhibition with detergent; Potency, µM, without a hit: max response, negative = inhibition, usual class: inhibitors; P25779; purified cruzain, Z-FR-AMC fluorescence, 0.01% Triton; 200,000 compounds, 0.43% hits; active = well fitted curve in the direction sought with a large enough effect; inconclusive = small, poorly fitted or top-dose-only effect, or another doubt; inactive = no such curve, though single readings can be large; an effect the other way counts as inactive or inconclusive;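 note: plate controls were neutral wells for no effect and buffer without enzyme for full effect; nearly all actives have a fitted effect of over 40% in size; top concentration of the series not given in the record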
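Enzyme 1.5 nM, Z-FR-AMC 2 uM, NaOAc 100 mM pH 5.5, DTT 5 mM, Triton X-100 0.01%; 15 min RT compound preincubation; kinetic ex360/em450, 60 s delta.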
The depositor's hits bear a star; ? = inconclusive; nt = no result given; & = joins results of further samples; [ ] = another dose, or the depositor's remark. Unless noted, calls come from the whole dose curve; as a rule, active means well fitted rising curve with a large enough effect; inconclusive means small, poorly fitted or top-dose-only effect; inactive means no such curve, though single readings can be large or run the other way. Potency is the fitted concentration of half-maximal effect. Rows were taken by chance. About 4.7% of those tested had a hit in this group.

SMILES | Marburg entry inh | LASV entry inh | SARS PLpro yeast | NS1 function inh | RE007 growth inh | Cruzain noTriton | 2A StopGo | Cruzain inh Det
COc1cc(OC)c(NC(=O)CN(C)S(=O)(=O)c2ccc(-c3ccc(=O)[nH]n3)s2)cc1Cl | nt | nt | ? | 17% | -8% | nt | -9% | nt
O=S(=O)(CCN1CCOCC1)c1ccccc1 | -5%[46.1 µM] | 5%[46.1 µM] | 0% | 2% | 4% | nt | -14% | nt
FC(F)(F)c1ccc(CNCCc2c[nH]c3ccccc23)cc1 | nt | nt | 10% | 13% | -16% | nt | -13% | nt
CS(=O)(=O)c1ccc(Cl)c(NC(=O)C2CC(=O)N(c3ccc4c(c3)OCCO4)C2)c1 (centres undefined) | -4% | 0% | 2% | 18% | 1% | nt | 12% | nt
CC(C)c1ccc(NC(=O)Cn2nnc(C(=O)NCc3ccco3)c2N)cc1 | 13%[46.1 µM] | 18%[46.1 µM] | 5% | -1% | 3% | nt | -15% | nt
CCCCCCC(=O)N1C/C=C\C(c2ccc(OC)cc2)N(Cc2ccc(F)cc2)C(=O)C1 (centres undefined) | nt | nt | -12% | -67% | -1% | nt | -21% | nt
CN(C)c1nc(NCc2ccccc2)nc(SCC(N)=O)n1 | 3% | -6% | 1% | 2% | 8% | nt | 0% | nt
Cc1ccc(NC(=O)c2ccc(Cl)c(S(=O)(=O)N3CCc4ccccc43)c2)nc1 | ? | ? | nt | nt | 5% | nt | -27% | nt
C=CCNc1oc(-c2cccs2)nc1S(=O)(=O)c1ccccc1 | 1%[46.1 µM] | 29% | 8% | -2% | -3% | nt | 0% | nt
COc1ccc(-c2csc(NC(=O)c3ccc(OCC(=O)N4CCOCC4)c(OC)c3)n2)cc1 | ? | ? | 1% | 21% | -19% | ? | ? | -12%
CCOc1ccc(CNC(=O)c2c(C)nn(-c3ccc(F)cc3)c2-n2cccc2)cc1 | nt | 2%[46.1 µM] | nt | nt | nt | ? | 0% | -3.4%
CCC(=O)Nc1cccc(NC(=S)NC(=O)c2ccccc2)c1 | -6% | ? | 1% | -1% | -3% | 0% | 48%[activator] | -2.5%
O=C(O)c1ccc(OCCCCCCOC2CCCCO2)cc1 (centres undefined) | 4%[46.1 µM] | 14%[46.1 µM] | 0% | -3% | 6% | nt | -11% | nt
CC1CCCN(C(=O)CCc2nnc(-c3ccc4c(c3)OCO4)o2)C1 (centres undefined) | 19% | 3% | -8% | -6% | 34% | nt | 38%[activator] | nt
O=C(COc1ccc(F)cc1)NCC(c1ccc(Cl)cc1)N1CCCCC1 (centres undefined) | ? | 28%[46.1 µM] | nt | nt | nt | -2% | -14% | 5.0%
CCOc1ccc(N/C(C)=C/C(=O)c2ccc(C)o2)cc1 | 3% | -14% | -6% | -5% | -16%[3.69 µM] | 1% | -12% | -13%
CCCC1CC(C(=O)NC(C(C)Cl)C2OC(SC)C(O)C(O)C2O)N(C)C1 (centres undefined) | nt | nt | -10% | -11% | 22%[18.4 µM] | nt | -17% | nt
O=[N+]([O-])c1ccc(N2CCN(S(=O)(=O)c3ccccc3)CC2)cc1N1CCc2ccccc2C1 | ? | 21% | 9% | -1% | -7% | 7.9µM* | -20% | -4.1%
Cn1c(=O)c2c(nc(N3CCN(c4ccc([N+](=O)[O-])cc4)CC3)n2C)n(C)c1=O | -3%[46.1 µM] | -2% | 0% | 0% | 15% | nt | ? | nt
O=C(O)c1n[nH]c2c1CCCCC2 | 9% | 23% | 1% | -9% | 2% | -12% | -9% | -6.1%
Nc1nc2n(n1)C(c1cccc(Br)c1)CC(c1ccccc1)N2 (centres undefined) | nt | nt | 1% | -11% | 0% | -6% | -17% | -4.5%
O=C(OCC1CC(c2ccccc2)=NO1)c1ccc(Cl)cc1 (centres undefined) | 9% | 10% | 6% | -12% | -6% | -10% | nt | 2.0%
CS(=O)(=O)c1ccc(C(=O)OCC(=O)Nc2cccc(S(=O)(=O)N3CCCC3)c2)cc1 | 3%[46.1 µM] | -1% | 0% | nt | -1% | nt | -7% | nt
CC(C)CC(=O)Nc1c(C(=O)N2CCN(c3ccccc3)CC2)oc2ccccc12 | -28%[46.1 µM] | ? | nt | nt | nt | -2% | 8% | -2.5%
CCOC(=O)N1CCC(N2C(=O)c3ccc(C(=O)O)cc3C2=O)CC1 | 7% | 5% | 19% | -2% | -8% | -2% | 3% | 2.2%
O=C(Cc1ccc([N+](=O)[O-])cc1)Nc1ccc2c(c1)C(=O)NC2=O | ? | 18% | -4% | nt | -1% | nt | 4% | nt
COc1cc(CNS(=O)(=O)c2ccc3c(c2)CC(C)N3C(C)=O)cc(OC)c1OC (centres undefined) | 1%[46.1 µM] | 11%[46.1 µM] | -1% | -3% | -13% | nt | -19% | nt
CCN(C(=O)c1sc2nc3n(c(=O)c2c1C)CCCCC3)c1ccccc1F | nt | ? | nt | nt | nt | -12% | -15% | -5.8%
CCCCNS(=O)(=O)c1cc(-c2nn(C)c(=O)c3ccccc23)ccc1C | ? | ? | 0% | -1% | 8% | nt | 32%[activator] | nt
COc1ccc(-n2ncc3c(N4CCN(c5cccc(C)c5C)CC4)ncnc32)cc1 | nt | nt | 4% | 11% | -6% | nt | ? | nt

4 entries drawn at random from those above, as already listed:
SMILES | Marburg entry inh | LASV entry inh | SARS PLpro yeast | NS1 function inh | RE007 growth inh | Cruzain noTriton | 2A StopGo | Cruzain inh Det
CCOC(=O)N1CCC(N2C(=O)c3ccc(C(=O)O)cc3C2=O)CC1 | 7% | 5% | 19% | -2% | -8% | -2% | 3% | 2.2%
CCCC1CC(C(=O)NC(C(C)Cl)C2OC(SC)C(O)C(O)C2O)N(C)C1 (centres undefined) | nt | nt | -10% | -11% | 22%[18.4 µM] | nt | -17% | nt
O=C(OCC1CC(c2ccccc2)=NO1)c1ccc(Cl)cc1 (centres undefined) | 9% | 10% | 6% | -12% | -6% | -10% | nt | 2.0%
O=C(O)c1n[nH]c2c1CCCCC2 | 9% | 23% | 1% | -9% | 2% | -12% | -9% | -6.1%

Later entries:
SMILES | Marburg entry inh | LASV entry inh | SARS PLpro yeast | NS1 function inh | RE007 growth inh | Cruzain noTriton | 2A StopGo | Cruzain inh Det
CN1CCN(c2cc(N3CCN(C(=O)c4ccco4)CC3)c3c4c(onc24)-c2ccccc2C3=O)CC1 | nt | nt | -5% | 0% | -15% | nt | ? | nt
CCN(CC(=O)Nc1ccccc1OC)C(=O)C1CCCC1 | -8% | -7% | 0% | nt | -8% | nt | -14% | nt
O=C(c1cc([N+](=O)[O-])ccc1N1CCN(S(=O)(=O)c2ccc(Cl)c(Cl)c2)CC1)N1CCOCC1 | -8% | ? | -7% | 0% | -2% | -8% | -2% | -2.7%
CC1CCN(Cc2c(C#N)c3ccccc3n2C)CC1 | -20% | -3% | -3% | -6% | 0% | -4% | -20% | -2.1%
COc1ccccc1N1CCN(S(=O)(=O)c2c(C)ccc3nsnc23)CC1 | 0%&0% | -28% | -25% | -10%[9.22 µM] | 6% | 4% | ? | 6.1%
Cc1cccc(OC(C)c2ccnc3nc(/N=C/N(C)C)nn23)c1 (centres undefined) | -1% | 50%[14.3 µM] | 1% | 2% | 11% | 8% | 14% | -2.5%
COC(=O)C1=CN(c2ccc(OC)cc2)C=C(C(=O)OC)C1c1cc(OC)c(OC)cc1OC | -9% | 0.63µM* | 0% | 15% | 11% | nt | -14% | nt
CCOc1cc(/C=N/NC(=O)CCc2n[nH]c(=O)[nH]c2=O)ccc1O | ? | 7%[46.1 µM] | 0% | nt | -12% | nt | 3% | nt
Cc1ccc(NC(=O)Cn2cc(S(=O)(=O)c3ccccc3)c(=O)c3cc4c(cc32)OCO4)cc1 | ? | ? | nt | nt | nt | ? | 6% | -8.8%
COc1ccc(OCC(O)CNC(=O)Nc2ccc(Cl)cc2)cc1 (centres undefined) | -25%[46.1 µM] | 11% | 14% | 5% | 7% | -6% | 1% | -2.8%
O=C(CSc1nc(=O)n(CCCN2CCOCC2)c2c1CCC2)Nc1ccc([N+](=O)[O-])cc1 | -1% | 1% | 1% | nt | -7% | nt | -15% | nt
CNC(=S)N(CCCn1ccnc1)Cc1c(F)cccc1Cl | 3%[46.1 µM] | 10% | -1% | 14% | 8% | nt | -13% | nt
CC(C)n1nnnc1SCC(=O)NC1CCCC1 | 16%[46.1 µM] | 17% | 2% | 2% | 10% | nt | -1% | nt
Cc1ccc(Cl)c(NC(=S)N(CCCN2CCOCC2)Cc2ccco2)c1 | -39% | -16% | 0% | 1% | -9% | -6% | nt | 3.1%
COC(=O)c1ccc(OCC(O)CN2CCN(C(=O)c3ccco3)CC2)cc1 (centres undefined) | nt | nt | 1% | -1% | 2% | nt | 2% | nt
O=C(COC(=O)C1CC1)NCc1ccccc1 | 7%[46.1 µM] | 10% | 3% | nt | 17% | nt | 2% | nt
COc1ccc(C2C(C#N)=C(N)Oc3c2c(-c2ccccc2)nn3-c2ccccc2)c(OC)c1OC (centres undefined) | -7% | 2% | -6% | ? | 7% | -9% | -7% | -5.9%
CN(C)c1ccc(C(CNC(=O)c2ccccc2F)c2c[nH]c3ccccc23)cc1 (centres undefined) | 0% | -11% | 20% | 16% | 4% | ? | -17% | -13%
COc1cc2c(cc1OC)/C(=C/C(=O)c1cccc([N+](=O)[O-])c1)NCC2 | ? | ? | -2% | 12% | 3% | nt | -16% | nt
CCOC(=O)c1c(C)oc2ccc(N(C(=O)c3ccncc3)S(=O)(=O)c3ccc(CC)cc3)cc12 | nt | ? | nt | nt | nt | -2% | 1% | -5.6%
COc1ccc(OC)c(NC(=O)Cn2c(=O)oc3ccccc32)c1 | 4% | 22% | 3% | 1% | 15% | -8% | 12% | -0.2%
COc1ccc2cc(C(c3nnnn3C3CCCC3)N3CCc4ccccc4C3)c(=O)[nH]c2c1 (centres undefined) | -29%&-29% | 4% | 0% | -4% | 0% | -4% | 16% | -1.1%

High-throughput results as filed in PubChem BioAssay.
